High-throughput results deposited in PubChem by several laboratories.
Vif TR-FRET – inhibitors of Vif binding to APOBEC3G peptide, primary screen, biochemical, TR-FRET, GST-Vif 1-94, biotin-A3G peptide, dose response retest (AID 1117319); inhibition, %, or IC50 in µM where a hit was titrated; actives 0.57% (n = 260,000); TR-FRET GST-Vif / biotin-A3G peptide binding; higher % means a stronger effect; test concentration not given here; strong numbers were not always called active;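 active means above the screen mean plus three standard deviations and confirmed in dose response; inconclusive means results disagree or hit not tested in dose response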;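 further: Vif residues 1-94 fused to GST binding biotinylated APOBEC3G peptide 110-148; 0% = full assay without inhibitor and 100% = GST in place of GST-Vif; retest series ran down from 100 µM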
Calb FLC – C. albicans growth inhibition with fluconazole, primary screen, CaCi-2 strain, Alamar Blue fluorescence; C. albicans CaCi-2 (fluconazole-resistant clinical isolate) + fluconazole, 48 h; growth inhibition, % (concentration not given with the values); actives 0.57% (n = 300,000); AID 1979, 2009;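 active means most replicates above 75%; inconclusive means exactly half above 75%; inactive means most below 75%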;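 further: all wells also contain fluconazole at 8 µg/ml as a sub-toxic cotreatment; 0% = median of DMSO wells and 100% = median of geldanamycin control wells; wells of about 8 µL received 7.5 nL stock; the first replicate is given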
T cruzi repl – inhibitors of intracellular T. cruzi growth, primary screen, luminescence, NIH3T3 host cells | T. cruzi beta-gal in NIH3T3, 90 h | AID 1885, 2009 | actives 1.4% (n = 300,000) | inhibition, % (test concentration not listed);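 active means mean inhibition across valid replicates above about 55%, limit read from the data; inconclusive means mean below that limit but half or more replicates reach it; inactive means mean below it, under half of replicates reach it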;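 further: signal also drops with host cell toxicity which is not excluded here; 0% = plate median of DMSO wells and 100% = zero luminescence signal; higher percent means less beta-gal luminescence so fewer parasites; stock transfer was 50 nL into about 50 µL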
Bfl-1 A1 inh – caspase 3/7 activation in MEF A1-2A-BIM cells, primary screen, A1 inhibitor project, cell-based, luminescence, HTS; Caspase-Glo 3/7 luminescence, 3 h; percent of clofoctol response, vehicle zero; caspase activation, % (no concentration beside the values); actives 0.066% (n = 330,000);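 active means over half of replicate activation scores above 10%, or exactly half above 10 with the replicate mean above 10; inconclusive means replicate mean below 10 yet half the replicates above 10; inactive means over half of replicates below 10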;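 further: wells of about 30 µL received 50 nL stock; many hits fall short of the cut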
LANA-H2B inh – blockers of LANA interaction with H2A/H2B – biochemical, FP readout, HTS, primary screen; AID 2629, 2010; Protein LANA1 (Human herpesvirus 8 type P (isolate GK18)), Q9QR71; actives 0.6% (n = 320,000); cell-free LANA-H2A/H2B peptide, fluorescence polarization; inhibition, % (test concentration not listed); in the data active means inhibition mostly above about 10%, no sharp cut-off; inactive means mostly below about 6.7%;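 further: stock transfer was 7.5 nL into about 10 µL; 0% = median of vehicle wells and 100% = median of positive control wells; one replicate is shown; the record names a cut of 25% in any replicate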
Target sequence (Q9QR71 whole entry, looked up): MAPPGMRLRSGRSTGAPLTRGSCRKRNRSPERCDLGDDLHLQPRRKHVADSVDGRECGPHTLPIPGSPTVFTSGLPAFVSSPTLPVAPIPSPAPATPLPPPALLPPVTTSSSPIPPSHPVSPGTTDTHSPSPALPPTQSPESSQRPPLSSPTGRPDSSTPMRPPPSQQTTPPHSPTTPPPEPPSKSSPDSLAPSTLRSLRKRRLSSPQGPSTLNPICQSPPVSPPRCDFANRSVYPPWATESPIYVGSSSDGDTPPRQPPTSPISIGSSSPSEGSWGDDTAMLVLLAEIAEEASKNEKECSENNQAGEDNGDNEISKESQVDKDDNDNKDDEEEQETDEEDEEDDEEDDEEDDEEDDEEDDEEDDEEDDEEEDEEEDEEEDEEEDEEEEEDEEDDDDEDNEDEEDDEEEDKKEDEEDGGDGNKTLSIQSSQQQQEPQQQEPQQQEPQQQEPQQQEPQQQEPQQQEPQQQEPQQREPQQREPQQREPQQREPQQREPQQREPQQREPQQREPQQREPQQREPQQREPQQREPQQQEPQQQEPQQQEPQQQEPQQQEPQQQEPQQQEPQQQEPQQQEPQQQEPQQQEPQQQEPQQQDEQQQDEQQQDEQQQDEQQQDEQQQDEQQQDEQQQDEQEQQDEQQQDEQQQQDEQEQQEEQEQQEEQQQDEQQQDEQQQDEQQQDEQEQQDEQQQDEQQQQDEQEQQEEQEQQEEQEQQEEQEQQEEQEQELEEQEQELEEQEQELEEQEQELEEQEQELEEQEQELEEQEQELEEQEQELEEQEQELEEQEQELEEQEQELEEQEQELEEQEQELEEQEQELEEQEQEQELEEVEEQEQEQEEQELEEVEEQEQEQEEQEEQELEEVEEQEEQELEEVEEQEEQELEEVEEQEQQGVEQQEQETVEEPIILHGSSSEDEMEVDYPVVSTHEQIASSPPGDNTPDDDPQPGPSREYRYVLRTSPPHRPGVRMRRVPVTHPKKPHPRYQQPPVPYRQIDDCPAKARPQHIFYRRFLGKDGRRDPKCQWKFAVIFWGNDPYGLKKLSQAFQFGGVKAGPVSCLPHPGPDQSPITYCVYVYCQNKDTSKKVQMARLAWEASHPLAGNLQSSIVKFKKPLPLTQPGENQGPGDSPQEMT
RanGTP-Impb inh – inhibitors of RanGTP-importin-beta interaction, primary screen, biochemical, FRET, CFP-Ran, YFP-importin-beta, homogeneous. Ran GTPase (GTP-bound) - importin-beta complex. actives 1.1% (n = 300,000). cell-free CFP-Ran/YFP-importin-beta FRET ratio. inhibition, % (test concentration not listed). AID 2216, 2009;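 active means most replicates above 15%; inconclusive means exactly half above 15%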;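 further: 0% = DMSO wells and 100% = Ran loaded with GDP instead of GTP; wells of about 40 µL received 100 nL stock; the first replicate is given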
AF4-AF9 inh – inhibitors of AF4 peptide binding to AF9, primary screen, biochemical, AlphaScreen, biotin-AF4 peptide, FLAG-AF9, single point | inhibition, % at 10 µM | actives 0.47% (n = 350,000);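 active means every replicate reaching a set inhibition limit, whatever the replicate mean, cut at about 25% in these data; inconclusive means mean inhibition reaches that limit but some replicates miss it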;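 further: 0% = plate neutral control median and 100% = total signal loss; the record names both 10 and 1 µM as test concentration; the first replicate is given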
Beta apoptosis – inhibitors of cytokine-induced beta cell apoptosis, primary screen, luminescence. INS-1E cytokine-induced death, ATP luminescence, 48 h; percent of positive-control rescue, neutral wells zero. protection from apoptosis, % (concentration not given with the values). actives 0.8% (n = 300,000). AID 435005, 2010;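 active means all replicates at 75% or more, or half of them and the mean; inconclusive means half reach 75% but not the mean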;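 further: 0% = cytokine-treated negative control wells and 100% = positive control rescue; higher means more ATP so stronger rescue from cytokine killing; wells of about 40 µL received 100 nL stock; the first replicate is given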
* marks the source's active call; other numbers are inactive results; u = inconclusive; x = not tested or not shown; & = joins results of further samples.

Compound,Vif TR-FRET,Calb FLC,T cruzi repl,Bfl-1 A1 inh,LANA-H2B inh,RanGTP-Impb inh,AF4-AF9 inh,Beta apoptosis
S=C(NCC(c1cccnc1)N1CCOCC1)NC1CCCCC1 (stereo not given),-1%,1,-14,0.6,7.5,-2.4,1.1,-6
COc1cc(C(=O)Nc2cc3c(cc2N2CCCCC2)n(C)c(=O)n3C)cc(OC)c1OC,x,15,8,3.3,-1.1,-1.5,1.0,0
O=S(=O)(c1ccc2ccccc2c1)N1CCN(C2Cc3ccccc3C2)CC1,15%,4,27,0.7,1.1,3.9,-4.0,0
Cc1c(Cl)c([N+](=O)[O-])nn1Cc1ccc(C(=O)N/N=C\c2ccccn2)o1,3%,x,x,0.0,4.2,x,x,-5
Cc1ccc(Nc2ncnc3c2cnn3C)cc1,x,22,-8,0.5,5.7,2.4,-1.9,-3
COc1cccc2sc(N(C)c3ccccc3)nc12,68%,26,-5,-5.1,0.7,0.1,x,x
CCCCn1c(N)c(N(CCOC)C(=O)CSc2n[nH]c(-c3ccc(OC)cc3)n2)c(=O)[nH]c1=O,x,2,-12,0.1,0.4,u,-3.8,5
Cc1ccc2[nH]c(=O)c(CN(CCc3ccccc3)C(=O)N3CCOCC3)cc2c1,-20%,-5,2,0.5,-0.4,2.5,x,-3
COc1ccc(OC)c(NC(=O)CCC(=O)Nc2nnc(C(C)C)s2)c1,x,1,-4,-1.0,-13,6.7,-1.5,x
O=S(=O)(NCCO)c1ccc2c(c1)Cc1cc(S(=O)(=O)NCCO)ccc1-2,-7%,5,-2,-0.5,4.1,10,1.8,-2
CC[N+]1(CC)CC2=Cc3c(ccc4ccccc34)CC2C1 (stereo not given),0%,-3,-2,-0.1,2.6,-2.0,x,3
Nc1nonc1-c1noc(-c2ccc(Br)o2)n1,-4%,-4,1,0.1,-7.7,0.4,x,2
CC(C)(C)c1ccccc1OCCOCCSc1ncccn1,69%,u,28,0.1,1.0,3.5,x,x
CCOC(=O)c1ccc(NC(=S)N2CCCC2c2ccc(OC)c(OC)c2)cc1 (stereo not given),u,10,-1,-0.8,-1.1,0.2,5.3,3
O=C(/C=C/c1cccc([N+](=O)[O-])c1)NC1CC2CCC1C2 (stereo not given),-4%,-6,-16,-0.8,-2.4,7.6,x,-4
NC(=O)c1nn(-c2ccccc2)nc1NC(=O)CSc1nnnn1-c1ccc(Cl)cc1,-12%,-26,-2,1.2,-4.4,-2.4,x,1
Cc1occc1C(=O)Nc1c(Cl)cccc1Cl,-6%,9,-7,0.0,-1.2,2.5,-0.3,-6
CCc1noc(C)c1C(=O)NC1CCCc2c1cnn2-c1cc(C)cc(C)c1 (stereo not given),-1%,-4,7,-0.1,-2.8,-0.3,-2.9,-1
O=C(NCc1ccco1)c1cccc(C(F)(F)F)c1,20%,-8,-6,0.1,1.2,-3.4,-0.8,-6
COc1ccc2c(c1OC)C(=O)N1C2SC(C)(C)[C@H]1C(=O)NCCCOC(C)C (stereo not given in full),6%,7,13,0.2,-0.4,u,-1.7,-6
CCc1cccc(CC)c1NC(=O)CN1C2CCCC1CC(NC(=O)Nc1cccc(OC)c1)C2 (stereo not given),x,11,9,-0.3,6.0,-0.2,3.0,-8
Cc1ccc(C(=O)Oc2ccc(C(=O)COC(=O)c3cnccn3)cc2)cc1,73%,-5,-25,1.6,0.3,-0.8,x,1
O=C(c1ccc2c(c1)OCCO2)N1CCCCC1,-5%,-6,6,-0.4,5.2,1.1,x,-10
Cc1nc2ccccc2c2c1CC(C)S2 (stereo not given),2%,3,-10,1.0,6.3,2.3,-7.2,-3
O=C(CSc1ccccc1C(=O)O)c1ccc(Cl)cc1,-3%,-6,13,-0.9,-2.5,3.2,-1.2,-2

Compound,Vif TR-FRET,Calb FLC,T cruzi repl,Bfl-1 A1 inh,LANA-H2B inh,RanGTP-Impb inh,AF4-AF9 inh,Beta apoptosis
Cc1cc(C(F)(F)F)nc(SCC(=O)NC2=NC(=O)C(C)S2)n1 (stereo not given),1%,-7,-10,0.7,14,0.2,x,-5
CCC(C)NC(=O)c1ccc(C)c(NC(=O)C2=C(C)OCCS2)c1 (stereo not given),2%,1,-4,0.3,-6.8,5.2,-0.9,-10
O=C(NCc1ccc2c3c(cccc13)C(=O)N2)c1cccs1,x,3,-8,x,x,2.2,-14,x
COc1cc(CNCc2ccccn2)ccc1OCC(=O)NC(C)(C)C,x,-1,-45,0.7,-1.7,0.9,x,-6
Cc1nn(Cc2c(F)cccc2Cl)c(C)c1[N+](=O)[O-],x,-1,13,0.0,-0.5,-3.1,-2.6,-7
Cc1ccccc1OCCCSc1nc2ccccc2[nH]1,x,19,12,-0.1,0.3,u,-4.5,-7
NS(=O)(=O)c1ccc(CCNC(=O)Nc2ccc(Cl)c(Cl)c2)cc1,15%,18,-1,-0.1,-3.5,u,x,2
CCN(CC)c1ccc(C2Nc3cccc4cccc(c34)N2)cc1,x,-11,-13,0.3,-0.2,u,4.1,1
CCCCn1c(/C=N/Nc2nc3ccccc3[nH]2)nc2ccccc21,x,-4,39,-0.4,-7.3,0.7,x,76*
COc1ccc(CN2CCN(c3ccccn3)CC2)cc1OCc1ccccc1,-1%,-22,-6,-0.8,3.0,-1.5,x,9
COc1ccc(Oc2nc(-c3ccncc3)nc3ccccc23)cc1,x,-9,48,0.2,1.4,3.5,-2.8,-6
CCOC(=O)C1=C(C)OC(N)=C(C#N)C1c1cc(F)ccc1F (stereo not given),5%,7,-31,-1.4,3.8,2.0,2.5,-4
Cc1ccc(NC(=O)CSCC(=O)NCc2cccc(C(F)(F)F)c2)cc1,-2%,-6,4,0.9,-5.4,u,3.1,1
Cc1nc2ccccc2c(=O)n1NC(=O)c1ccco1,6%,x,x,1.2,2.5,x,x,-9
CC1CCN(C(=O)CN2C(=O)c3cccc4cccc(c34)C2=O)CC1,-5%,-1,5,1.1,-0.3,-2.2,1.3,-9
O=[N+]([O-])c1ccccc1-c1ccc(C(=S)N2CCCCC2)o1,6%,-9,5,-0.4,-1.1,-2.8,10,-1
CC(c1ccco1)N(C(=O)c1ccccc1NS(=O)(=O)c1ccc(Cl)c([N+](=O)[O-])c1)c1ccccn1 (stereo not given),x,20,6,0.1,-2.5,1.7,1.1,-11
O=C(COC(=O)/C=C/c1cccs1)NC1CCCCC1,x,7,-15,0.2,-1.1,-2.3,0.3,-5
O=C(Nc1nnc(-c2ccc(Cl)cc2)o1)NC1CCCCC1,-5%,18,-1,-0.1,7.8,0.4,x,9
O=C(Nc1ccc(S(=O)(=O)N2CCCC2)cc1)C1CC(=O)N(c2ccc(F)cc2)C1 (stereo not given),x,-16,-3,0.3,6.9,3.4,-3.7,1
CCC(NC(=O)c1cc(COc2cc(C)c(Cl)c(C)c2)on1)c1ccncc1 (stereo not given),x,-2,36,-2.5,-2.2,-4.7,-3.2,11
Cn1cc([N+](=O)[O-])c(C(=O)Nc2ccc(Br)cn2)n1,2%,1,-31,-1.5,2.7,0.8,x,-13
CC1CCc2c(sc(Nc3nc4c(F)cccc4s3)c2C(N)=O)C1 (stereo not given),x,0,-4,0.7,-2.2,170*,x,-4
CC(C)(C)n1nnnc1C(c1cccs1)N1CCN(Cc2ccccc2)CC1 (stereo not given),6%&-4%,-8,0,0.4,-3.7,1.8,6.5,-4
COCC(C)NC(=O)COc1nncc2ccccc12 (stereo not given),x,13,-16,0.1,-2.1,2.7,-2.5,-6

Complete entries, quoted from the list.
CCCCn1c(/C=N/Nc2nc3ccccc3[nH]2)nc2ccccc21 across the screens: Vif TR-FRET: x; Calb FLC: -4; T cruzi repl: 39; Bfl-1 A1 inh: -0.4; LANA-H2B inh: -7.3; RanGTP-Impb inh: 0.7; AF4-AF9 inh: x; Beta apoptosis: 76*
Cc1ccc(NC(=O)CSCC(=O)NCc2cccc(C(F)(F)F)c2)cc1 across the screens: Vif TR-FRET: -2%; Calb FLC: -6; T cruzi repl: 4; Bfl-1 A1 inh: 0.9; LANA-H2B inh: -5.4; RanGTP-Impb inh: u; AF4-AF9 inh: 3.1; Beta apoptosis: 1

(more compounds)
Compound,Vif TR-FRET,Calb FLC,T cruzi repl,Bfl-1 A1 inh,LANA-H2B inh,RanGTP-Impb inh,AF4-AF9 inh,Beta apoptosis
COc1ccc(CN2CCN(S(=O)(=O)c3ccc(C)cc3)CC2)cc1Br,-3%,-7,27,0.6,-1.4,u,x,4
CC(C)c1onc(C(=O)N2C(C)CCCC2C)c1[N+](=O)[O-] (stereo not given),-10%,-5,-14,0.3,-1.1,-3.6,x,-3
CCn1cc(C(=O)NC2CCCCCC2)c(=O)c2cc(S(=O)(=O)N3CCCCC3)ccc21,x,x,x,-0.1,-5.2,x,1.4,1
O=C(Cc1cccs1)NCc1cccc(CNC(=O)Cc2cccs2)c1,-8%,1,0,0.5,1.3,2.1,0.1,4
COc1ccc2cc(Br)ccc2c1CC(=O)NC(C)C,x,u,15,1.7,3.1,0.8,-0.1,x
CCc1cc(=O)oc2cc(OCC(=O)N3CCC(C(=O)O)CC3)ccc12,x,1,-17,1.2,1.4,4.2,1.0,x
COc1cc(OC)cc(C(=O)N2CCC(C(=O)c3ccc(F)cc3)CC2)c1,x,-10,13,-0.7,-2.7,-2.5,0.4,1
O=C(CCl)Nc1c(C(=O)Nc2ccc3c(c2)OCCO3)oc2ccccc12,-2%,13,4,-6.2,-2.8,1.2,1.9,14
COc1cc(C(=O)NC(CCSC)C(=O)OCc2cc([N+](=O)[O-])cc3c2OCOC3)cc(OC)c1OC (stereo not given),4%,-9,-3,0.2,-1.4,7.8,-3.3,4
C=C(C)CNC(=S)/N=c1\scc(C)n1CC,x,-2,13,-1.2,3.0,u,x,7
CC1CN(S(=O)(=O)c2cccc(C(=O)NN3CCN(C)CC3)c2)CC(C)O1 (stereo not given),17%,-7,-11,-0.2,6.1,-4.9,x,-1
O=Cc1nc(-c2ccccc2Cl)n2ccccc12,10%,-10,-23,1.2,7.1,-0.1,-20,-7
COc1ccc(N2CCN(C(c3cc4ccc(C)cc4[nH]c3=O)c3nnnn3C3CCCC3)CC2)cc1 (stereo not given),7%,-7,32,0.2,0.9,0.6,x,-4
CCn1c(SCC(=O)Nc2ccc3c(c2)OCCO3)nnc1-c1ccco1,3%,0,-7,-0.3,-0.3,2.8,5.8,-3

Random draw from the library, and some 4.3% of all compounds hit somewhere here.
